# PMP22 txn – modulators of PMP22 gene transcription in S16 Schwann cells | Potency, µM (titrated, usually from 57.5 µM), for inactives: at the top dose activity change, negative = inhibition, actives largely listed as inhibitors | AID 1508649 | S16 Pmp22-F2sN Schwann cells (luciferase reporters placed in the Pmp22 gene), FLuc/NLuc coincidence luminescence, 24 h | 43,000 tested, 2% active; active = clear falling dose curves in both reporters; inconclusive = both reporters move, but less clearly or upward; inactive = either reporter flat; the % is the NLuc reporter signal; also: % is scaled to controls: 0 for no effect and ±100 for the full control effect; some results filed as inactive show a strong effect at the top dose
#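 Transcriptional readout in edited S16(c9) cells: two luciferases reported from the Pmp22 locus, measured in turn after 24 h compound incubation.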
# HTT promoter inh – inhibits huntingtin promoter activity; Potency, µM (highest dose often 57.5 µM), inactives show at the highest dose activity change, negative = inhibition, most hits filed as inhibitors; AID 1508623; 48,000 tested, 0.93% active; HEK293 HTT promoter firefly luciferase reporter (activity 0% = vehicle and -100% = no light), 24 h; active = well fitted inhibition curve with a large enough effect; inconclusive = small, poorly fitted or top-dose-only effect; inactive = no such curve, though single readings can be large or run the other way; also: nearly all actives have a fitted effect of over 50% in size
#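 HEK293 Fluc reporter, 2,500 cells/well, 24 h pre-culture; cpds up to 57.5 uM final, 24 h 37 degrees C; Dual-Glo, 10 min RT; normalized vehicle = 0%, zero RLU = -100%.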
# An asterisk follows results filed as active; u = inconclusive; x = not tested or not shown; [ ] = another dose, or the depositor's remark. Potency is read from the fitted curve at half-maximal effect.
Compound	PMP22 txn	HTT promoter inh
Cc1cc(C)c2c(CC(=O)Nc3ccc(S(=O)(=O)Nc4nc(C)cc(C)n4)cc3)coc2c1	2%	-27%
Cc1ccn2c(=O)c(C(=O)NCCCN3CCCCC3C)c(O)nc2c1 (stereo not given)	4%	-2%
CCOc1ccc(CCNC(=O)Cn2nc(CC)n3c(cc4ccccc43)c2=O)cc1	u	7%
COc1cc(O)c(C(=O)c2ccccc2)cc1S(=O)(=O)O	x	3%
Cc1cccc(N2CCN(S(=O)(=O)c3ccc(F)c(C(=O)Nc4ccc(C(C)C)cc4)c3)CC2)c1C	-17%	-26%
CN(C)S(=O)(=O)c1ccc(C(=O)NCCSc2c(-c3ccc(Cl)cc3)[nH]c3ccccc23)cc1	-12%	u
C=C[C@@]1(C)CC(=O)[C@]2(O)[C@@]3(C)[C@@H](O)CCC(C)(C)[C@@H]3[C@H](O)[C@H](OC(C)=O)[C@@]2(C)O1	x	-2%
COc1ccc(C)cc1NC(=O)NCCn1nnc2cc(S(=O)(=O)N(C)C)ccc21	56%	-24%
CCN(CC)CC(=O)Nc1c(C)cccc1C(=O)OC	x	0%
N[C@H](C(=O)O)c1ccc(O)cc1	x	0%[25.2 µM]
Cc1cc(S(=O)(=O)C(CNC(=O)c2ccc(F)c(F)c2)c2cccs2)ccc1F (stereo not given)	u	-18%
Cc1ccccc1CNCCSc1nnnn1-c1ccccc1	u	-9%

# Reprinted from the part before: 6 entries, followed by the next part.
Compound	PMP22 txn	HTT promoter inh
C=C[C@@]1(C)CC(=O)[C@]2(O)[C@@]3(C)[C@@H](O)CCC(C)(C)[C@@H]3[C@H](O)[C@H](OC(C)=O)[C@@]2(C)O1	x	-2%
COc1ccc(C)cc1NC(=O)NCCn1nnc2cc(S(=O)(=O)N(C)C)ccc21	56%	-24%
CCN(CC)CC(=O)Nc1c(C)cccc1C(=O)OC	x	0%
N[C@H](C(=O)O)c1ccc(O)cc1	x	0%[25.2 µM]
Cc1cc(S(=O)(=O)C(CNC(=O)c2ccc(F)c(F)c2)c2cccs2)ccc1F (stereo not given)	u	-18%
Cc1ccccc1CNCCSc1nnnn1-c1ccccc1	u	-9%
O=S(=O)(c1ccccc1)c1nnn2c1nc(NC1CCCCCC1)c1sccc12	-36%	-2%
Cc1c(C(=O)N(Cc2ccccc2F)C2CCS(=O)(=O)C2)oc2ccc(F)cc12 (stereo not given)	6%	-3%
CCOCCCNC(=O)c1cnc2sc(N3CCCCCC3)nn2c1=O	-35%	10%
CCOc1ccccc1-c1noc(CSc2nnc(-c3ccccc3)n2-c2ccc(F)cc2)n1	u	u
CN(C)CCN(Cc1ccco1)C(=O)c1oc2ccccc2c1NC(=O)c1ccccc1	u	-26%
Cc1ccc(Cc2c(C)nc3nc(SCC(=O)NC4CCC(C)CC4)nn3c2C)cc1 (stereo not given)	5%	-6%
O=C(CCCn1c(=O)[nH]c2ccsc2c1=O)N1CCN(c2ccc(Cl)cc2)CC1	u	u
Cc1cc(C)c2c(n1)SCC(=O)N2CC(=O)Nc1ccccc1C	-6%	u
O=C(NCC(c1cccs1)S(=O)(=O)c1cccs1)c1ccccc1 (stereo not given)	1%	-24%
CCOC(=O)COc1cc(C)c(Cl)cc1C(=O)c1ccn2nc(-c3ccc(OC)cc3)cc2n1	-1%	-7%
C[C@@H]1CN(CC(=O)Nc2ccc3c(c2)Cc2cccc(-c4cc(=O)cc(N5CCOCC5)o4)c2S3)C[C@H](C)O1	x	u
CN1C(=O)C2(SCC(=O)N2c2ccc(F)cc2)c2ccccc21 (stereo not given)	-9%	-17%

# Profiles, quoted from the list. Order of values: PMP22 txn	HTT promoter inh
# `CCOC(=O)COc1cc(C)c(Cl)cc1C(=O)c1ccn2nc(-c3ccc(OC)cc3)cc2n1` in the list: -1%	-7%
# `CCOc1ccccc1-c1noc(CSc2nnc(-c3ccccc3)n2-c2ccc(F)cc2)n1` in the list: u	u

# Next section.
Compound	PMP22 txn	HTT promoter inh
COc1ccc(C(=O)Oc2ccc(C(c3c(C)[nH][nH]c3=O)c3c(C)[nH][nH]c3=O)cc2OC)cc1	-15%	1%
COc1ccc(C)cc1NC(=O)c1ccc(=O)n(Cc2ccccc2)c1	52%	-13%
CCc1ccc2oc(-c3ccc(NC(=O)c4ccc(OC)c(Br)c4)cc3)nc2c1	-4%	45%[activator]
COc1ccc(C2=NN(CC(=O)NCCc3ccccc3)C(=O)CC2)cc1	0%	8%
Cc1ccc(NC(=O)c2cn(-c3ccccc3)nc2-c2ccccc2)cc1	u	-31%
COc1ccc(-n2nc3c(N4CCC(C(=O)NCCc5ccccc5)CC4)nnc(C)c3c2C)cc1	6%	-27%
CCOc1ccc(-n2c(=O)c3c4c(sc3n(Cc3cccc(Cl)c3)c2=O)CCCC4)cc1	-9%	-5%
CCc1ccccc1NC(=O)C(=O)NCCc1sc(-c2cccc(C)c2)nc1C	-31%	-18%
CC(=O)c1ccc(NC2=NS(=O)(=O)c3ccccc32)cc1	-22%	0%
COC(=O)c1ccc(NC(=O)n2ncc3c(C)cccc32)cc1	10%	9%
CCN(CC)c1ccc(NC(=O)CN2C(=O)c3cccnc3Sc3ccccc32)c(C)c1	-22%	21%
Cc1cccc(N(C)c2nc3ccc(C(=O)c4ccccc4)cc3n3c(C)nnc23)c1	u	-29%
NC(=O)c1noc([C@H](CCCC2CCCCC2)CC(=O)NO)n1	x	15%
Cc1ccc(-c2cn3ccc(C)cc3n2)cc1	u	-10%
CCOc1ccc(C(CC(=O)O)N2Cc3ccccc3C2=O)cc1OC (stereo not given)	10%	-5%
CCc1nnc(NC(=O)CSc2nc3c([nH]c4ccccc43)c(=O)n2-c2ccc(Cl)cc2)s1	u	-18%
O=C(Nc1ccc2nc(SCCOc3ccccc3Cl)sc2c1)c1cccs1	u	u
COc1ccc(-c2nc(Cn3c(SCc4ccc(F)cc4)nc4cccnc43)c(C)o2)cc1	u	u
O=c1c2sc3ccccc3c2n(Cc2cccc(F)c2)c(=O)n1CCc1ccccc1	5%	43%[activator]
O=C(CSc1cn(CC(=O)N2CCOCC2)c2ccccc12)Nc1ccccc1	2%	-20%
Cc1cc(=O)n(Cc2ccc(Br)cc2F)c2c1c(C)nn2-c1ccccc1	0%	0%
COc1ccc(C2C=C(c3ccccc3)Nc3nc(NC(=O)/C=C/c4ccccc4OC)nn32)cc1 (stereo not given)	u	-20%
Cc1nc(-c2ccc(C)c(S(=O)(=O)N3CCC(C(=O)NCc4ccc(Cl)cc4)CC3)c2)no1	-1%	-30%
CCN(Cc1ccccc1)C(=O)Cn1c(=O)n(-c2cccc(C)c2)c(=O)c2c1c1cc(C)ccc1n2C	-21%	-18%
COc1cc(NC(=O)NC(C)c2c(-n3cccc3)sc3c2CCN(C)C3)cc(OC)c1 (stereo not given)	u	-17%
Cc1cccc(N2CCN(C(=O)Nc3ccc(F)cc3)CC2C)c1 (stereo not given)	-16%	-11%
Cc1cc2c(cc1S(=O)(=O)Nc1cccc(C(F)(F)F)c1)OCCN2C	u	u
COc1ccc(Nc2ncc3c(n2)CCN(Cc2sccc2C)C3)c(OC)c1	-9%	-7%
COc1ccc(N2C(=O)CSC23C(=O)N(C)c2ccccc23)cc1Cl (stereo not given)	-19%	-25%
COc1ccc(-n2c(SCC(=O)NCc3ccc(Cl)cc3)nc3ccsc3c2=O)cc1	16µM*	-20%
CCc1ccc(-c2nn(CC(=O)NC3CCCC3)c3c2cnc2ccc(F)cc23)cc1	-8%	66%[activator]
CCCC(C(=O)NCc1cccc(Cl)c1)N1Cc2ccccc2C1=O (stereo not given)	-11%	-20%
Cc1cccc(C)c1Nc1c(-c2ccccn2)nc2ccc(Cl)cn12	1%	-8%
Cc1cccc(-n2c(-c3ccco3)nc3c(cnn3-c3ccccc3C)c2=O)c1	u	u
Cc1nn(-c2ccc(N3CCOCC3)nn2)c(C)c1CCC(=O)NCc1ccc(F)cc1	25%	0%
CCc1ccccc1NC(=O)CCC(=O)N1CC(C)Oc2ccc(C)cc21 (stereo not given)	10%	u

# The listing continues:
# Second line of a record – PMP22 txn | HTT promoter inh
> Cn1cc(S(=O)(=O)N2CCCCCC2)cc1C(=O)Nc1ccc(Cl)c(C(F)(F)F)c1
 : u | -8%
> O=C(NCCc1ccc(Cl)cc1)c1ccc2c(c1)N(Cc1ccc(F)cc1Cl)C(=O)CS2
 : u | u
> CCCN1CCN(C(=O)Cn2ncc3c4ccccc4n(Cc4cccc(Cl)c4)c3c2=O)CC1
 : -10% | u
> Cc1cccc(C(=O)NCC(c2ccc3c(c2)OCO3)N2CCOCC2)c1 (stereo not given)
 : 1% | -23%
> Cc1c(C(=O)Nc2ccccc2)sc2nc(-c3cc4ccccc4oc3=O)[nH]c(=O)c12
 : 0% | 4%
> Cc1ccc2c(c1)N(C(=O)CCC(=O)Nc1ccc(F)cc1F)CC(C)O2 (stereo not given)
 : u | -35%
> Cc1c(NC(=O)c2ccc(Cl)cc2)cc(C(C)C)c(O)c1S(=O)(=O)c1ccccc1
 : -10% | -8%
> Cc1ccc(C(=O)Nc2cnc3ccccn3c2=O)cc1
 : -4% | 63%[activator]
> O=C(NCc1ccc(Cl)cc1)C(=O)Nc1ccc(Br)cc1
 : -6% | -16%[11.5 µM]
> COc1ccccc1CNC(=O)CSc1cc(=O)n(C)c2ccccc12
 : -15% | 9%
> CCNC(=O)c1ccc(CSc2nc3cccnc3n2Cc2ccc(OC)cc2)cc1
 : -74% | -24%
> O=C(Cn1ncc2c3ccccc3n(Cc3ccc(F)cc3)c2c1=O)NCc1ccccn1
 : u | -14%
> CCSc1ncc(Cl)c(C(=O)Nc2sc3c(c2C(=O)NCCCOC)CCCC3)n1
 : 4% | 2%
> CCOC(=O)Cn1c(=O)oc2cc(S(=O)(=O)Nc3ccccc3F)ccc21
 : 15% | -17%
> CCOc1ccc(CNC(=O)c2ccc(Sc3ccc(C)cc3)c(N)c2)cc1OC
 : u | u
> CCOc1ccc(OCC)c(NC(=O)CN(c2ccc(C)cc2)S(=O)(=O)c2c(C)n[nH]c2C)c1
 : -13% | u
> Cc1nc2nc(C)c(NS(=O)(=O)c3ccc(F)cc3)c(=O)n2[nH]1
 : 12% | -4%
> CN(Cc1ccccc1)S(=O)(=O)c1ccc(NC(=O)c2cc(=O)c3ccccc3o2)cc1
 : u | u
> N#C/C(=C\c1ccc(Cl)cc1)c1nc(-c2cc3ccccc3oc2=O)cs1
 : 8% | 1%
> Cc1cc(C)n2c(Nc3ccccc3)c(-c3ccccc3)nc2n1
 : 5% | -5%
> O=C(O)CC(NS(=O)(=O)c1ccc(Br)s1)c1ccccc1 (stereo not given)
 : 13% | 9%
> Cn1c(=O)c2c(SCC(=O)NCc3ccc(F)cc3)nc(-c3ccccc3Cl)nc2n(C)c1=O
 : -1% | 0%
> O=C(CN1CCN(Cc2cccc(Cl)c2)C1=O)NCc1ccc(F)cc1
 : 3% | 13%
> Cc1ccc(C)c(NC(=O)Cn2c(-c3nonc3N)nc3ccccc32)c1
 : 2% | u
> O=C(CSc1nccn1C1CCCC1)Nc1cc(C(F)(F)F)ccc1Cl
 : u | u
> COc1ccc2oc(=O)c(-c3csc(/C(C#N)=C/c4ccc(F)cc4)n3)cc2c1
 : -4% | -3%
> Cc1cccc(N(C)S(=O)(=O)c2nnc(NC(=O)C(C)(C)C)s2)c1
 : -18% | u
> Cc1c(Cl)cccc1-n1ncc(C(=O)NCc2cccs2)c1C1CCN(C(=O)OC(C)(C)C)CC1
 : u | u
> CCc1ccccc1NC(=O)CCc1c(C)nc2cc(-c3ccccc3)nn2c1C
 : u | u
> COc1ccc(Cl)cc1NC(=O)CN1C(=O)C(C)(C)c2cc(S(=O)(=O)N3CCCCC3)ccc21
 : -8% | -48%
> Cc1cccc(N2CCN(C(=O)CCn3c(=O)c4cccn4c4cccnc43)CC2C)c1 (stereo not given)
 : u | u
> COc1ccc(NC(=O)Nc2cc(C(=O)NCc3ccc(C)cc3)ccc2N2CCCC2)cc1
 : -8% | -18%
> CCN1CCN(CCCNC(=O)Cn2nc(C)n3c(cc4c(OC)cccc43)c2=O)CC1
 : -17% | 1%
> CCN(C(=O)CSc1nc2ccccc2n1CC(=O)NCc1ccc(OC)cc1)c1ccccc1
 : u | -16%
> COc1ccccc1C(=O)N1CCCCC1CCN1CCOCC1 (stereo not given)
 : -18% | -7%
> CNS(=O)(=O)c1ccc(NC(=O)c2nc3nc(C)cc(C(F)F)n3n2)cc1
 : 2% | -9%
> O=C(Cn1ncc2c([nH]c3ccccc32)c1=O)NCCCN1CCN(c2ccccc2)CC1
 : -15% | -22%
> Cc1ccc(O)c(NC(=O)c2noc3c2CCCCC3)c1
 : u | 35%[activator]
> CCOc1ccc(NC(=O)c2c(NCc3cccnc3)sc3c2CCC(C)C3)cc1 (stereo not given)
 : u | 3%
> O=C(c1ccccc1Cl)N1CCCCC1CCN1CCOCC1 (stereo not given)
 : -12% | -5%
> CCc1nnc(SCc2ccc(F)cc2Cl)c2cc3sc(C)cc3n12
 : -29% | 3%
> Cc1ccc(C)c(Cn2c(=O)n(CCCCCC(=O)NCc3ccc4c(c3)OCO4)c(=O)c3sccc32)c1
 : u | -25%
> Cc1ccc2cccc(NC(=O)c3ccc(-c4cccc(Cl)c4Cl)o3)c2n1
 : 4% | -4%
> CCn1cc(C(=O)OCC(=O)Nc2cc(OC)cc(OC)c2)c(=O)c2ccc(C)nc21
 : 5% | -15%
> COc1ccc(Br)cc1CNC(=O)c1cc2c(=O)n(C)c3ccccc3c2s1
 : 8% | -4%

# Compound activity: PubChem, National Center for Advancing Translational Sciences (NCATS)
